Bioassay records (PubChem)
VDR inhibitor – vitamin D3 receptor (human) inhibition | 0.93% of 400,000 active | VDR-SRC2-3 peptide fluorescence polarization, 2 h | P11473 | Potency, µM, for the others: max response, negative = inhibition, usual class: inhibitors; active means well fitted inhibition curve with a large enough effect; inconclusive means small, poorly fitted or top-dose-only effect, or another doubt; inactive means no such curve, though single readings can be large or run the other way; further: series mostly up to about 120 µM
Target sequence (P11473 whole entry, looked up): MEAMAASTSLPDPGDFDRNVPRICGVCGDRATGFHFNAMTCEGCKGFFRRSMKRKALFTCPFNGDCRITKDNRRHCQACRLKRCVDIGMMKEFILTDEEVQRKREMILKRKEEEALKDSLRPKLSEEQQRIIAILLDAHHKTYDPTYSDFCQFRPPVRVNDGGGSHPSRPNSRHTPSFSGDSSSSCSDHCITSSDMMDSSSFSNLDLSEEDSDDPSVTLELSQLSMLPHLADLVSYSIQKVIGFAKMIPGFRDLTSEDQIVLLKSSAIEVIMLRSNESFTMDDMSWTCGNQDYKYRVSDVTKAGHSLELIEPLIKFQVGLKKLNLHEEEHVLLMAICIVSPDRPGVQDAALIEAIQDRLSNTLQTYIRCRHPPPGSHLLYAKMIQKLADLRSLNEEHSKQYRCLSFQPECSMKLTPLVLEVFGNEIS
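The screen uses fluorescence polarization to detect compounds that interfere with recruitment of the SRC2-3 coactivator peptide to VDR; plates are read after 2 h at room temperature.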
* marks the source's active call; other numbers are inactive results; ? = inconclusive; & = joins results of further samples. On the % scale 0 is the no-effect control and ±100 the full control effect; potency means the concentration at half of the fitted maximal effect. The list is partial; the hit share may differ from the screen's.

SMILES	VDR inhibitor
COc1ccccc1N1CCN(C(=O)Cn2ncc3ccsc3c2=O)CC1	6.2%
Cc1ccc(-c2nnn(CC(=O)N(CCCO)C(C(=O)NC3CCCC3)c3ccc(Cl)cc3)n2)o1 (centres undefined)	-7.0%
CN(C)NC(=S)Nc1cccc(C(F)(F)F)c1	-1.2%
COc1ccc(S(=O)(=O)Nc2c(C)nn(C)c2C)cc1Br	8.2%
O=C1S/C(=C/c2ccccc2)C(=O)N1CC(O)Cn1c2ccccc2c2ccccc21 (centres undefined)	-9.8%
Cc1cc(N2CCCCC2)n2ncc(-c3ccccc3)c2n1	-12.5%
O=C(CSc1ccccn1)Nc1ccc(Cl)c([N+](=O)[O-])c1	-4.9%
Cc1ccc(-c2nc3ncccc3o2)cc1NC(=O)c1cccc(OCC(C)C)c1	4.3%
CCOC(=O)Cn1c(S(=O)(=O)Cc2ccc(Cl)cc2)nc(-c2ccccc2)c1-c1ccccc1	-17.6%
Cc1ccc(C(=O)Nc2ccc3cn[nH]c3c2)cc1S(=O)(=O)N1CCOCC1	1.7%
O=C(Nc1nc(-c2ccco2)c(-c2ccco2)s1)c1ccco1	?
CC(C)(C)CN1CCNC(=O)C1CC(=O)NCc1cccc(-n2cccn2)c1 (centres undefined)	-1.4%
COc1cccc(CNC(=O)CCc2c(C)nc3c(c2C)c(=O)n(C)c(=O)n3C)c1	-5.4%
Cc1cccc(N2C(=O)SC(SC(=Nc3ccccc3)Nc3ccccc3)C2=O)c1 (centres undefined)	?
Nc1cc(=O)[nH]c(SCC(=O)Nc2ccc(S(=O)(=O)N3CCCCC3)cc2)n1	0.9%
O=C(Nn1c(C2CC2)nc2ccccc2c1=O)c1ccco1	-5.2%
Cc1noc(C)c1COC(=O)Cn1c(C)nc2ccccc21	5.3%
COc1ccc(OC)c(CCNC(=O)CCc2nnc3ccc(N4CCCC4)nn23)c1	3.9%
O=S1(=O)CCC(NC(=S)SCCOc2ccccc2)C1 (centres undefined)	-19.5%
Cc1ccc(S(=O)(=O)NCC(c2ccco2)N2CCc3ccccc32)cc1 (centres undefined)	5.7%
O=C(c1ccc(F)cc1)N1CCC(O)(c2cccnc2)CC1	-1.3%
CCN(CC)c1ccc(NC(=S)NC(=O)c2cccs2)cc1	?
CC1c2ccccc2N(S(=O)(=O)c2ccccc2)C1C (centres undefined)	-1.4%
CCCC(NC(=O)CCl)c1ccccc1 (centres undefined)	-17.1%
O=C(CCN1C(=O)C2C3C=CC(C3)C2C1=O)Nc1ccccn1 (centres undefined)	1.8%
CC(C)[C@H]1COC(NC2=N[C@@H](C(C)C)CO2)=N1	3.3%
O=C(COC(=O)c1ccc(CO)cc1)c1ccc(S(=O)(=O)N2CCCCC2)cc1	-22.2%
CN(C)/C=C/C(=O)c1cnc(-c2ccccn2)s1	-10.8%
Cn1cccc1C(=O)C(=O)Nc1ccc(F)c(F)c1	-10.6%
CCn1c(O)c(/C=C2\C=Nc3ccccc32)sc1=Nc1ccccc1	12.2%
COc1ccc(CCNC(=O)CN(c2ccccc2)S(C)(=O)=O)cc1	-6.4%
Cc1ccc(O)c(C2=Nc3ccccc3N=C(c3cccc([N+](=O)[O-])c3)C2)c1	3.3%
Cc1cc2nc(-c3cc(N4CCOCC4)ccc3[N+](=O)[O-])ccn2n1	-12.5%
CC1=Nc2cc(C(=O)NCc3ccc(C)cc3)ccc2Sc2ccc(Cl)cc21	-1.7%
COc1cccc(CNC(=O)COCc2cc(-c3ccc4c(c3)OCO4)on2)c1	12.0%
CC(C)C(NC(=O)c1ccco1)C(=O)NCc1ccc(C(=O)O)cc1 (centres undefined)	8.7%
COc1cccc(CC2(CO)CCN(Cc3cnc(-c4cccc(C)c4)nc3)CC2)c1	-14.1%
CN(C(=O)COC(=O)Cc1c(F)cccc1Cl)c1c(N)n(Cc2ccccc2)c(=O)[nH]c1=O	-9.6%
COc1ccc(OC)c(NC(=O)[C@@]2(CC(=O)O)CC(/C=C/c3ccccc3)=NO2)c1	-9.4%
S=c1[nH]c2ccc(Cc3ccc4[nH]c(=S)[nH]c4c3)cc2[nH]1	-13.0%
Cc1ccc(CNc2ncc(-c3ccc4c(c3)OCO4)n2C)cc1	-3.7%
O=[N+]([O-])c1ccc(Cn2cc(-c3cccc(C(F)(F)F)c3)nn2)cc1	-2.7%
CCC(c1nnnn1CCc1ccccc1)N(Cc1ccco1)Cc1cc2cccc(C)c2[nH]c1=O (centres undefined)	20.6%
C=CCOc1cccc(C2/C(=C(\O)c3ccc(F)cc3)C(=O)C(=O)N2CCN(C)C)c1 (centres undefined)	6.4%
CCC(C(=O)NCc1ccco1)n1nc(C)n2c(cc3occc32)c1=O (centres undefined)	6.4%
COc1ccc(C2CC(=O)N(C)c3ccccc3S2)cc1OC (centres undefined)	0.3%
CC(=O)NC1=NN(C(C)=O)C(C)(c2cccc([N+](=O)[O-])c2)S1 (centres undefined)	18.9%
COc1ccc(CNc2nc(-c3ccccc3)nn2S(=O)(=O)c2ccccc2)cc1	-2.0%
CC(=O)Nc1ccc(S(=O)(=O)NNC(=O)COc2cccc3ccccc23)cc1	-17.0%
CCc1c(C(=O)OC)nnc2cc(C)nn12	8.4%
OCCCNC(=S)Nc1ccc(Nc2ccccc2)cc1	18.0%
COC(=O)c1ccc(/C=C/C(=O)OCC(=O)c2ccc[nH]2)cc1	9.6%
O=C(NCC1CCCCN1)c1cc(OCC(F)(F)F)ccc1OCC(F)(F)F (centres undefined)	-15.9%&13.5%
CNC(=S)N1CCc2cc(OC)c(OC)cc2C1COc1ccc(OC)cc1 (centres undefined)	3.1%
CCOc1cc(-n2ncc(C#N)c2N)nc(SC)n1	13.5%
CCCNC(=O)c1ccc(SCC(=O)N(CC)CC)c([N+](=O)[O-])c1	-12.9%
Cc1nc2cnc(N3CCOCC3)nc2n(Cc2ccc(F)cc2)c1=O	-5.9%
O=C(Oc1ccc[nH]c1=O)c1cc([N+](=O)[O-])cc([N+](=O)[O-])c1	5.1%
O=C(C1CC1(c1ccccc1)c1ccccc1)N1CCOCC1 (centres undefined)	-4.4%
CCC(C)(C(=O)NC1CCCCC1)N(Cc1ccco1)C(=O)c1cnccn1 (centres undefined)	-14.0%

Two entries picked at random from the list so far, as already listed:
SMILES	VDR inhibitor
Cc1nc2cnc(N3CCOCC3)nc2n(Cc2ccc(F)cc2)c1=O	-5.9%
CC(=O)Nc1ccc(S(=O)(=O)NNC(=O)COc2cccc3ccccc23)cc1	-17.0%

Next section
SMILES	VDR inhibitor
CN1c2ccccc2C(O)=C(C(=S)Nc2ccc(Cl)cc2)S1(=O)=O	?
O=C(Cn1c(=O)n(Cc2ccc3c(c2)OCO3)c(=O)c2ccc(C(=O)NC3CCCCC3)cc21)Nc1ccccc1F	-6.9%
COc1ccc(C)cc1N(CC(=O)N1CCCC1)S(=O)(=O)c1ccccc1	-11.8%
CCN(CC)CCN(C(=O)CCS(=O)(=O)c1ccccc1)c1nc2c(C)cc(C)cc2s1	-21.5%
CNCCCCOc1ccccc1-c1ccccc1	-15.2%
CCCn1c(N)c(Sc2ccc(C)cc2)c(=O)n(CCC)c1=O	-10.3%
Cc1ccccc1NC(=O)COC(=O)c1n[nH]c(=O)c2ccccc12	-18.4%
Cc1ccc(/C=N/N2C(=S)SC(C)(C)C2N(O)C(=O)Nc2ccc([N+](=O)[O-])cc2)cc1 (centres undefined)	-8.5%
CCc1ccc(CNC(=O)C(=O)NCCc2ccc(OC)c(OC)c2)cc1	4.8%
CCOc1ccc(S(=O)(=O)Oc2ccc3ccccc3c2)cc1	-12.5%
COc1cc(/C=N/N=C(N)N)ccc1OCc1ccccc1Cl	-1.5%
Cc1ccc(C)c(NC(=S)/C(=C(\[O-])c2ccc(Cl)s2)[n+]2ccccc2)c1	-19.5%
CCN(CC)c1nc2c(s1)C(=O)NCCC2	8.2%
Cc1ccnc(NC(=O)c2ccc(S(=O)(=O)c3ccccc3)cc2)c1	1.1%
COC(=O)c1ccc(NC(=O)COc2ccc(C3C(C#N)=C(N)Oc4c3ccc3ccccc43)cc2OC)cc1 (centres undefined)	-1.4%
O=c1cc(-c2c(O)c3ccccc3n(Cc3ccccc3)c2=O)[nH][nH]1	?
CC1(C)CC(=O)C(C=NC2CCCCC2)=C(O)C1	16.7%
Cc1sc2ncn(CC(=O)NCC3COc4ccccc4O3)c(=O)c2c1S(=O)(=O)N1CCCCC1 (centres undefined)	20.5%
Cc1nc(-n2cc(F)c(=O)[nH]c2=O)c2nc(C)oc2n1	3.7%
O=[n+]1c2c(n([O-])c3cc(F)c(F)cc31)CCCC2	3.4%
COc1ccc(CCNC(=O)C2CCN(S(=O)(=O)N3CC(C)CC(C)C3)CC2)cc1OC (centres undefined)	-14.6%
CCOc1ccc(NC(=O)CN(C)CC(=O)Nc2ccccc2C#N)cc1OCC	-1.3%
CCOC(=O)C1=C(COC(=O)CSc2ccc(Br)cc2)NC(=O)NC1C (centres undefined)	-4.2%
COc1cccc(-c2cc(C(=O)Nc3ccccc3SC)no2)c1	-11.2%
COc1ccc(C)cc1NC(=O)CCN1CCN(C/C=C/c2ccccc2)CC1	-9.1%
Oc1ccc2ccccc2c1CNc1ccccc1	22.4µM*
Cc1cc(Cl)nc(Cl)c1C(=O)NCCc1ccccc1	10.8%
Cc1cc(O)cc(O)c1C(=O)O	0.4%
CN(C)CCNC(=O)Cn1nc(C(F)F)cc1C1CC1	13.6%
CCC(CO)Oc1cc(NCc2ccccc2F)c2ncn(C(C)C)c2c1 (centres undefined)	-19.6%

Reprinted from the entries so far (18 entries):
SMILES	VDR inhibitor
Cc1ccc(C)c(NC(=S)/C(=C(\[O-])c2ccc(Cl)s2)[n+]2ccccc2)c1	-19.5%
CCN(CC)c1nc2c(s1)C(=O)NCCC2	8.2%
Cc1ccnc(NC(=O)c2ccc(S(=O)(=O)c3ccccc3)cc2)c1	1.1%
COC(=O)c1ccc(NC(=O)COc2ccc(C3C(C#N)=C(N)Oc4c3ccc3ccccc43)cc2OC)cc1 (centres undefined)	-1.4%
O=c1cc(-c2c(O)c3ccccc3n(Cc3ccccc3)c2=O)[nH][nH]1	?
CC1(C)CC(=O)C(C=NC2CCCCC2)=C(O)C1	16.7%
Cc1sc2ncn(CC(=O)NCC3COc4ccccc4O3)c(=O)c2c1S(=O)(=O)N1CCCCC1 (centres undefined)	20.5%
Cc1nc(-n2cc(F)c(=O)[nH]c2=O)c2nc(C)oc2n1	3.7%
O=[n+]1c2c(n([O-])c3cc(F)c(F)cc31)CCCC2	3.4%
COc1ccc(CCNC(=O)C2CCN(S(=O)(=O)N3CC(C)CC(C)C3)CC2)cc1OC (centres undefined)	-14.6%
CCOc1ccc(NC(=O)CN(C)CC(=O)Nc2ccccc2C#N)cc1OCC	-1.3%
CCOC(=O)C1=C(COC(=O)CSc2ccc(Br)cc2)NC(=O)NC1C (centres undefined)	-4.2%
COc1cccc(-c2cc(C(=O)Nc3ccccc3SC)no2)c1	-11.2%
COc1ccc(C)cc1NC(=O)CCN1CCN(C/C=C/c2ccccc2)CC1	-9.1%
Oc1ccc2ccccc2c1CNc1ccccc1	22.4µM*
Cc1cc(Cl)nc(Cl)c1C(=O)NCCc1ccccc1	10.8%
Cc1cc(O)cc(O)c1C(=O)O	0.4%
CN(C)CCNC(=O)Cn1nc(C(F)F)cc1C1CC1	13.6%

Other results follow.
SMILES	VDR inhibitor
Nc1n[nH]c(CCCO)n1	-1.0%
CC(C)(C)OC(=O)NCCCCCc1nnc(SCc2ccc(F)cc2)o1	-0.4%
COC(=O)CN1C(=S)N(Cc2ccccc2)C(=O)C1CC(=O)Nc1ccc(OC)cc1 (centres undefined)	-0.8%
CCNc1ncc2nc(-c3cc(F)cc(F)c3)c(=O)n(C[C@H]3CCCO3)c2n1	4.0%
CCC(C)(C(=O)NC1CCCC1)N(C(=O)c1cnccn1)c1ccccc1 (centres undefined)	-22.7%
N#C/C(=C(/O)CSc1ccccn1)c1nc2ccccc2s1	-18.2%
CC(Oc1ccccc1)C(=O)OCc1cc(=O)n2nc(C(C)C)sc2n1 (centres undefined)	11.0%
COc1cc(C)ccc1OCCCOc1ccccc1Cl	-15.1%
CC(C)C(=O)c1cn(CC(=O)NCc2ccc3c(c2)OCO3)c2ccccc12	-23.3%
COC(=O)c1ccc(OC)c(OC2CCCC2)c1	-11.6%
Cc1ccc(N(CC(=O)Nc2cccc(C)c2)S(=O)(=O)c2cccc3nonc23)cc1	21.0%
CCCCOc1ccc(Cn2c(=O)sc3ccccc32)cc1OC	-7.4%
CC1CCN(C(=O)CN2C(=O)COc3ccc(Cl)cc32)CC1	-1.5%
Cc1cccc(NC(=O)/C=C/c2cccs2)n1	5.8%
O=c1[nH]cnc2scc(-c3ccc(Br)cc3)c12	-2.7%
O=C(NC1CCCCC1)C12CC3CC(C1)CC(n1cncn1)(C3)C2	15.3%
COc1ccccc1S(=O)(=O)c1ccccc1[N+](=O)[O-]	2.8%
CC1=C(C(N)=O)C(c2ccc(C(C)C)cc2)n2nc(SCc3ccccc3F)nc2N1 (centres undefined)	-3.8%
COc1ccc(CCNC(=O)C(=O)c2c[nH]c3ccccc23)cc1	-2.2%
CCCCN1C2=NC(c3ccccc3)CN2c2ccccc21 (centres undefined)	-11.8%
COC(=O)c1ccc(Cn2cnc3ccccc3c2=O)cc1	-24.6%
NC(N)=N/N=C/c1ccc(OCc2ccccc2)c(OCc2ccccc2)c1	-10.5%
COc1ccc(OC)c(S(=O)(=O)Nc2ccc3oc(C)c(C(C)=O)c3c2)c1	-2.4%
COc1ccc(C(=O)NNc2ccccc2)cc1	2.5%
CCOc1ccc(/C(O)=C/C(=O)C(=O)Nc2ccc(S(=O)(=O)NC(C)=O)cc2)cc1	-19.6%
O=C(Nc1cccc(F)c1)N1CCCC2(CCN(C(=O)c3csnn3)CC2)C1	-2.6%
COc1cc(NC(=O)NS(=O)(=O)c2ccc(C)cc2)cc(OC)c1	1.8%
Cc1cccc(CNc2ccnc(-c3ccccc3CN(C)C)n2)c1	-2.1%
CCn1c(=S)sc2c(=O)n(CC(=O)NCCCc3ccccc3)c(C)nc21	0.0%
COc1ccc(/C=N/Nc2nc(-c3cccnc3)nc3ccccc23)c(OC)c1	-4.9%
CCCCn1c(N)c(N(CCOC)C(=O)c2sc3ccccc3c2Cl)c(=O)[nH]c1=O	-17.0%
C=CCOc1ccc(Br)cc1CNCC	2.6%
